2A StopGo: High Throughput Screening for Foot and Mouth Disease Virus Antivirals; Potency, µM (highest dose often 57.9 µM), for the others: at the highest dose signal change, negative = less light; hit rate 1.2% among 410,000; human cells with a luciferase reporter of 2A StopGo recoding; control for the full effect not named in the record; active = well fitted falling curve with a large enough effect; inconclusive = small, poorly fitted or top-dose-only effect; inactive = no such curve, though single readings can be large or run the other way; tested in HEK293T cells; further: on the % scale 0 is the no-effect control and ±100 the full control effect; nearly all actives have a fitted effect of over 45% in size; luciferase light after 4 h
Cruzain inh noDet: qHTS Assay for Promiscuous and Specific Inhibitors of Cruzain (without detergent). Cruzipain (Trypanosoma cruzi), P25779. Potency, µM, without a hit: max response, negative = inhibition, hits mostly inhibitors. hit rate 2.3% among 200,000. purified cruzain, Z-FR-AMC fluorescence, no detergent; active means well fitted curve in the direction sought with a large enough effect; inconclusive means small, poorly fitted or top-dose-only effect, or another doubt; inactive means no such curve, though single readings can be large; an effect the other way counts as inactive or inconclusive;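 further: plate controls were enzyme without inhibitor for no effect and buffer without enzyme for full effect; nearly all actives have a fitted effect of over 40% in size; top concentration of the series not given in the record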
Target sequence (P25779 123-467 limits assumed): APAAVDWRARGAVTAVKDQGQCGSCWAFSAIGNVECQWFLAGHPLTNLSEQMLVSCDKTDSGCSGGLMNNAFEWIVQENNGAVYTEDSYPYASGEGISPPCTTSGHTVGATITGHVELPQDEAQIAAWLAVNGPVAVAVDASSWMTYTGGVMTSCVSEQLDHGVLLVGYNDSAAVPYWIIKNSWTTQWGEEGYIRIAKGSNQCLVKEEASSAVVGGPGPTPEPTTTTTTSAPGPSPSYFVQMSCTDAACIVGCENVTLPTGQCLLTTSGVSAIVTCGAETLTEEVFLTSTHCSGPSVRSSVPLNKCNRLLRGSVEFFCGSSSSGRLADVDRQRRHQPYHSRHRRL
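Detergent-free condition (0.00005% Triton X-100) in acetate buffer pH 5.5 with DTT. 1.5 nM enzyme and compound were pre-mixed 15 min, then 2 uM Z-FR-AMC substrate added; reaction progress from fluorescence change between first and third reads (60 s).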
MARV entry inh: qHTS for inhibitors of binding or entry into cells for Marburg Virus. Marburg virus pseudotyped entry inhibition, cell reporter; control for the full effect not named in the record; about a third of the inactives were read at about 46 µM. Potency, µM (titrated, usually from 37.8 µM), for inactives: at the highest dose activity change, negative = inhibition, usual class: inhibitors. hit rate 1.8% among 300,000; active = well fitted inhibition curve with a large enough effect; inconclusive = small, poorly fitted or top-dose-only effect, or effect the other way; inactive = flat fitted curve, though single readings scatter; tested in HEK293 cells; about a fifth of its hits are not listed in these tables; further: on the % scale 0 is the no-effect control and ±100 the full control effect; luciferase read-out
SARS PLpro yeast: qHTS of Yeast-based Assay for SARS-CoV PLP; S. cerevisiae expressing SARS-CoV PLpro, growth rescue; control for the full effect not named in the record; Potency, µM (series often up to 32.9 µM), for inactives: at the highest dose activity, positive = growth rescue; hit rate 0.19% among 330,000; further: 0% is about no effect; nearly all actives have a fitted effect of over 55% in size; growth read by luminescence after 48 h
LASV entry inh: qHTS for Inhibitors of binding or entry into cells for Lassa Virus; Lassa virus pseudotype entry inhibition, cell reporter; control for the full effect not named in the record; hit rate 1.2% among 300,000; Potency, µM (series often up to 37.9 µM), for the others: at the top dose activity change, negative = inhibition, hits mostly inhibitors; AID 540256, 2011; active means well fitted inhibition curve with a large enough effect; inconclusive means small, poorly fitted or top-dose-only effect, or effect the other way; inactive means flat fitted curve, though single readings scatter; tested in HEK293 cells; further: on the % scale 0 is the no-effect control and ±100 the full control effect; nearly all actives have a fitted effect of over 50% in size; luciferase read-out
Cruzain Triton: qHTS Assay for Promiscuous and Specific Inhibitors of Cruzain (with detergent) | Cruzipain (Trypanosoma cruzi), P25779 | purified cruzain, Z-FR-AMC fluorescence, 0.01% Triton | Potency, µM, inactives show max response, negative = inhibition, most hits filed as inhibitors | hit rate 0.43% among 200,000 | AID 1478, 2009; active means well fitted curve in the direction sought with a large enough effect; inconclusive means small, poorly fitted or top-dose-only effect, or another doubt; inactive means no such curve, though single readings can be large; an effect the other way counts as inactive or inconclusive;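 further: plate controls were neutral wells for no effect and buffer without enzyme for full effect; nearly all actives have a fitted effect of over 40% in size; top concentration of the series not given in the record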
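Purified cruzain (1.5 nM final) was preincubated with compounds for 15 min at room temperature in 100 mM sodium acetate pH 5.5, 5 mM DTT, 0.01% Triton X-100. Reaction started with 2 uM Z-FR-AMC; AMC fluorescence change over 60 s gave activity.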
RE007 growth inh: qHTS Assay for Inhibitors of the HIV-1 protein Vpr. S. pombe RE007 Vpr strain, BacTiter-Glo ATP luminescence, 24 h; control for the full effect not named in the record. Potency, µM (highest dose often 92.2 µM), for the others: at the top dose activity change, negative = less growth. hit rate 0.21% among 360,000; active = well fitted falling curve with a large enough effect; inconclusive = small, poorly fitted or top-dose-only effect; inactive = no such curve, though single readings can be large or run the other way;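 further: on the % scale 0 is the no-effect control and ±100 the full control effect; nearly all actives have a fitted effect of over 50% in size; the assay follows cell death caused by Vpr and the record does not say whether a fall means rescue or toxicity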
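Fission yeast strain RE007, carrying one chromosomally integrated HIV-1 vpr copy, was seeded at OD 0.01 in PMG+AL medium with 23 nL pinned compound. After 24 h at 30 °C and 99% humidity, viability was read by BacTiter-Glo luminescence.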
NS1 inh: qHTS Assay for Inhibitors of Influenza NS1 Protein Function; S. cerevisiae slowed by influenza A NS1, growth recovery by OD600; Potency, µM (titrated, usually from 46.1 µM), without a hit: at the top dose activity, positive = more growth; hit rate 0.4% among 270,000; AID 2326, 2010; further: actives are rising curves; nearly all actives have a fitted effect of over 50% in size
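Compounds were scored for reversing the slow growth caused by influenza A NS1 in S. cerevisiae, measured by optical density at 600 nm. Assay medium contained 2% galactose at pH 6.0; NS1-free yeast of the same strain were the positive control.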
An asterisk follows results filed as active; ? = inconclusive; . = not tested or not shown; & = joins results of further samples; [ ] = dose if it differs, or a comment. Unless noted, the call rests on the fitted dose curve; in most records, active means well fitted rising curve with a large enough effect; inconclusive means small, poorly fitted or top-dose-only effect; inactive means no such curve, though single readings can be large or run the other way. Potency means the concentration at half of the fitted maximal effect. No enrichment for hits; overall some 4.5% were active at least once.

Structure	2A StopGo	Cruzain inh noDet	MARV entry inh	SARS PLpro yeast	LASV entry inh	Cruzain Triton	RE007 growth inh	NS1 inh
Oc1ccccc1CNCC12CC3CC(CC(C3)C1)C2	-24%	.	-33%	13%	?	.	16%	-2%
COC(=O)CN1C(=O)C(C)(C)Oc2ccc(C(=O)NC3CC3)cc21	-19%	-1%	26%	1%	-6%	8.3%	14%	-3%
COc1ccc(C(=O)OCC(=O)NC2CC2)cc1[N+](=O)[O-]	-9%	-12%	-15%	20%	18%	1.0%	-7%	5%
COc1ccc(NC(=O)CNC(c2ccccc2)c2ccccc2)cc1	0%	.	.	-2%	.	.	7%	-8%
CC(C)(C)C(=O)Nc1ncc(C(F)(F)F)cc1Cl	6%	2%	5%	-1%	7%	2.7%	56%	0%
CC(C)CC(=O)Nc1ccc(Cl)c(-c2nc3ccccc3[nH]2)c1	-19%	7%	12%[46.1 µM]	.	-11%[46.1 µM]	-3.9%	.	.
C/C=C(\C)c1nnc(NC(=O)OCC)s1	42%[activator]	4%	15%[46.1 µM]	-5%	-6%	4.6%	-4%	5%
O=C(CSc1nnc(C2CCCCC2)n1Cc1ccccc1)NCc1ccco1	-16%	30%	9%	-3%	21%	0.1%	-9%	5%
c1ccc2sc(C3CCN(Cc4nnnn4Cc4ccc5c(c4)OCO5)CC3)nc2c1	20µM*	?	?	15%	?	-4.6%	-6%	3%
Cc1nn(C(C)C(=O)NCC2CCCO2)c(=O)c2cc3occc3n12 (configuration not stated)	-9%	4%	8%	.	4%	4.4%	26%	0%
COc1cccc(OC)c1-c1nn2c(-c3ccco3)nnc2s1	-4%	-13%	-2%&-2%	-9%	-11%	1.2%	1%[3.69 µM]	-97%
COc1ccc(N2CCN(C(=O)c3c(-c4ccccc4)noc3C)CC2)cc1	0%	1%	.	?	.	3.7%	0%	0%
N#CNC(=Nc1ccc(F)cc1)SCc1ccccc1	-11%	25µM*	-1%	8%	.	2.4%	-2%	3%
CN(CC(=O)NCc1ccccc1)S(=O)(=O)c1cnc[nH]1	.	-1%	4%	5%	-2%	5.6%	1%	-2%
CCc1ccc(OCC(O)CN2CCN(c3ccccc3)CC2)cc1 (configuration not stated)	-4%	-2%	?	-5%	-7%[46.1 µM]	6.5%	-23%&-3%	-5%
COc1ccc(-c2c[n+](CC(=O)N3c4ccccc4Sc4ccccc43)c3n2CCC3)cc1	?	.	-12%	0%	-20%	.	0%	-7%
CCOC(=O)CSc1cc(C)c(C#N)c2nc3ccccc3n12	?	.	?	0%	20%	.	2%	-6%
CCc1ccc(CCC(=O)Nc2ccc(C)c(C)c2)o1	0%	-13%	-1%	-28%	-1%	-2.2%	-11%	-61%
Cc1cccc(-n2ncc3c(=O)[nH]c(SCC(=O)Nc4cc(C)on4)nc32)c1	2%	.	?	0%	-7%[46.1 µM]	.	8%	.
CCOC(=O)CN(C(=O)CSc1nnc(-c2ccncc2)n1CCCOC)c1ccccc1	7%	22%	16%	-4%	22%	-0.9%	0%	10%
O=c1[nH]cnc2c([N+](=O)[O-])cccc12	-16%	0%	0%	7%	2%	2.5%	-1%	3%
COc1cc(C(=O)Nc2nncs2)cc(OC)c1OC	-6%	-4%	5%	4%	2%	-0.1%	4%	-1%
Cc1cc(F)ccc1S(=O)(=O)N1CCCOC1CNC(=O)C(=O)NCc1ccncc1 (configuration not stated)	-9%	.	26%	26%	26%	.	-3%	-3%
CC(Oc1ccc(F)cc1)C(=O)Nc1cc(Cl)ccc1-n1cncn1 (configuration not stated)	-2%	.	?	-13%	-1%[46.1 µM]	.	-22%	.
COc1ccc(-c2csc3ncnc(N4CCN(c5cccc(C)c5C)CC4)c23)cc1	?	.	-4%	7%	-3%	.	-4%	14%
COc1cc(OC)c2c(C)cc(=O)oc2c1C(CCN1CCOCC1)c1ccc(N(C)C)cc1 (configuration not stated)	8%	.	.	0%	.	.	-13%	-11%
CCOC(=O)C1CCCN(S(=O)(=O)c2ccc(OC)cc2)C1 (configuration not stated)	-9%	1%	-15%	5%	-2%	5.1%	-2%	-6%
COc1cc(OC)c(N(C)C(=O)c2c(C)oc3ncnc(N4CCCCC4)c23)cc1Cl	-13%	?	.	.	-8%[46.1 µM]	-4.0%	.	.
COCCn1c(SCc2ccc(F)cc2)nc2ccccc2c1=O	?	.	.	-1%	.	.	23%	-21%
Clc1cccc(-c2nc(NCCN3CCOCC3)c3ccccc3n2)c1	-21%	.	?	-1%	-21%[46.1 µM]	.	?	-5%
O=C(c1cc(COc2c(F)cccc2F)on1)N1CCc2ccccc2C1	-1%	.	.	10%	.	.	-12%	-9%
c1csc(-n2nc3ccccc3n2)c1	10%	-3%	25%	1%	10%	2.3%	-17%	-15%
Cc1cc(N=Cc2c(O)n(-c3cccc(C(F)(F)F)c3)c(=O)c3ccccc23)no1	-21%	-1%	-2%	10%	2%	-6.2%	11%	-2%
CCOC(=O)C1CCC(CN(Cc2ccc(Cl)cc2)S(=O)(=O)c2ccc(F)c(C(=O)Nc3cccc(F)c3)c2)CC1 (configuration not stated)	0%	?	.	.	-5%[46.1 µM]	-0.2%	.	.
CN(C)CCNC(=O)COc1cccc2c1OC(C)(C)C2	6%	.	-4%[46.1 µM]	1%	7%	.	-5%	.
CCn1cc(/C=N\NC(=O)c2csc3ccccc23)c(C)n1	44%[activator]	-6%	-4%	4%	?	-3.5%	3%	0%
CCOc1ccc(CC(=O)OCn2nnc3ccccc3c2=O)cc1	-3%	.	?	0%	-16%[46.1 µM]	.	5%	.
CS(=O)(=O)NNC(=O)c1sccc1OCc1ncc(C(F)(F)F)cc1Cl	?	.	2%[46.1 µM]	0%	-15%	.	8%	5%
CN(C)c1nc(OCCNC(=O)Nc2ccc(Cl)cc2)nc(N(C)C)n1	1%	.	-22%[46.1 µM]	0%	-8%[46.1 µM]	.	-2%	.
CC1CCCN(CCCNC(=O)c2nn(C)c3c2CS(=O)(=O)c2ccccc2-3)C1 (configuration not stated)	-7%	.	.	-13%	.	.	-1%	-14%
CSc1nc(SCC(=O)NCc2ccco2)c2c3c(sc2n1)COC(C)(C)C3	?	22%	?	-10%	?	-16%	3%	3%
COc1ccc(-c2csc3ncnc(Nc4cc(OC)cc(OC)c4)c23)cc1	0%	37%	.	.	?	4.9%	.	.
COc1ccc2[nH]c3c4c(ccc3c2c1)C(=O)C=CC4=O	14µM*	.	.	-5%	.	.	9%	-26%
CN(C)CCNC(=O)C(=O)NCC1OCCN1S(=O)(=O)c1ccc2c(c1)OCCO2 (configuration not stated)	-3%	.	?	4%	9%[46.1 µM]	.	0%	2%
CCOCc1ccccc1Nc1ncnc2onc(-c3ccc(Cl)cc3)c12	?	1%	-1%[46.1 µM]	.	10%[46.1 µM]	6.0%	.	.
O=C(Nc1cc(Cl)ccc1-n1cncn1)c1ccc(Br)o1	-1%	.	?	2%	0%	.	-19%	.
Cc1cc(C)c(S(=O)(=O)Nc2ccc(-c3ccc(N4CCCCCC4)nn3)cc2)cc1C	52%[activator]	?	.	.	?	-4.4%	.	.
COc1cc(OC)c(OC)cc1NC(=O)CC1COc2ccccc2O1 (configuration not stated)	-1%	2%	0%	18%	5%	-0.8%	11%	-10%
CC(=O)c1cc(-c2ccccc2)n(CCC(=O)NC2CCCCCCC2)c1C	0%	5%	-67%	13%	6%	-0.8%	30%	-29%
O=C(Nc1cccc(Cl)c1)N1CCCC1	16%	0%	3%	-10%	-3%	3.2%	?	-113%

The results go on:
Structure	2A StopGo	Cruzain inh noDet	MARV entry inh	SARS PLpro yeast	LASV entry inh	Cruzain Triton	RE007 growth inh	NS1 inh
CCCOc1ccc(C2=NNC(=O)CC2)cc1	16%	-1%	27%	-1%	-9%	-4.9%	20%	-1%
CC(C)(C)c1ccc(C(=O)N2CCN(CCNC(=O)C(=O)NCc3ccc(Cl)cc3)CC2)cc1	-28%	.	?	2%	?	.	6%	-65%
CC(C)(C)c1ccc(-c2cn(-c3ccc(Br)cc3)c3[n+]2CCCS3)cc1	?	.	?	0%	?	.	5%	.
COC(=O)c1sc(NC(=S)NC(=O)c2cccc(Br)c2)nc1C	50%[activator]	.	.	?	.	.	-8%	4%
Cc1cc(NC(=O)CCC(=O)N(Cc2ccco2)C2(C(=O)NC3CCCCC3)CCCCC2)no1	-18%	.	?	-1%	34%[46.1 µM]	.	-2%	0%
COc1ccc(-c2nnc(NC(=O)c3ccco3)s2)cc1	12%	.	?	1%	-14%	.	-10%	-11%
Cc1ccc(S(C)(=O)=NS(=O)(=O)c2cccc3nsnc23)cc1 (configuration not stated)	14%	.	-1%[46.1 µM]	1%	-7%[46.1 µM]	.	-7%	1%
N#C/C(=C/c1ccc(OCc2ccc(C(=O)O)cc2)cc1)C(=O)Nc1ccccc1	-4%	.	.	7%	.	.	-1%	-1%
Cc1ccc(NC(=O)c2c(C)nc3sc(C(=O)Nc4ccc(F)cc4)c(N)c3c2-c2ccc(Cl)cc2)c(C)c1	-5%	-8%	0%[46.1 µM]	.	?	0.0%	.	.
Cn1c(=O)oc2cc(S(=O)(=O)NCCC(=O)NCCc3ccccc3)ccc21	-6%	-4%	-3%	0%	4%	1.0%	6%	-1%
O=C1CC(c2ccc(S(=O)(=O)Nc3cc(C(F)(F)F)cc(C(F)(F)F)c3)cc2)CN1 (configuration not stated)	13%	?	9%	2%	-9%	-12%	16%	11%
CC(C)CCC(CC(C)O)C(=O)NNC(=S)Nc1ccccc1 (configuration not stated)	87%[activator]	.	.	1%	.	.	7%	3%
O=C(CN1C(=O)c2ccccc2S1(=O)=O)Nc1ccc(S(=O)(=O)Nc2ncccn2)cc1	-9%	.	?	.	2%	.	8%	.

Screens deposited in PubChem BioAssay by National Center for Advancing Translational Sciences (NCATS).
